Calb biofilm kill – clotrimazole potentiators killing C. albicans biofilm, primary screen, 4-compound mixtures; C. albicans biofilm persisters + clotrimazole, fluorescence viability; primary screen in compound mixtures of four per well; inhibition, % at 7.6 µM; 120,000 compounds, 0.02% hits; AID 1242, 2008;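 active = inhibition above 30.3% in the primary screen of four-compound pools, then above 30% when the compound was retested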;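 note: compounds exposed to preformed 24 h biofilms for 48 h; the number belongs to the whole pool; some results filed as inactive read as strong as hits; inactives centre near 12; 0% = biofilm with clotrimazole alone and 100% = kill control; retested singly at about 60 µM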
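Assay system: C. albicans biofilms / Medium: RPMI/MOPS medium, pH 7.0 / Schedule: biofilm formation 24 h, compound exposure 48 h, 37 °C / Measured by: Alamar Blue fluorescence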
An asterisk follows results filed as active. Some of the compounds tested; count on the stated rates, not on these rows.

The opening 4 records, to show the layout:
item	canonical_smiles	Calb biofilm kill
1	Cc1[nH]c2ccccc2c1C(c1ccncc1)N1CCCCC1 (centres undefined)	7.0
2	CCOC(=O)C1=NNC(C(=O)c2ccccc2)C1c1ccc(Cl)cc1 (centres undefined)	20.8
3	Cn1c(=O)oc2cc(S(=O)(=O)NCc3cccnc3)ccc21	12.3
4	Cc1ccc(S(=O)(=O)c2c(N)n(CCCN(C)C)c3nc4ccccc4nc23)cc1	12.6

The whole of this part, from the first entry:
item	canonical_smiles	Calb biofilm kill
1	Cc1[nH]c2ccccc2c1C(c1ccncc1)N1CCCCC1 (centres undefined)	7.0
2	CCOC(=O)C1=NNC(C(=O)c2ccccc2)C1c1ccc(Cl)cc1 (centres undefined)	20.8
3	Cn1c(=O)oc2cc(S(=O)(=O)NCc3cccnc3)ccc21	12.3
4	Cc1ccc(S(=O)(=O)c2c(N)n(CCCN(C)C)c3nc4ccccc4nc23)cc1	12.6
5	Cc1cccc(C(=O)Nc2ccccc2C(=O)NCc2cccnc2)c1	-9.8
6	CCO[C@H]1OC(C(=O)N2CCN(C)CC2)=C[C@@H](c2ccc(Br)cc2)[C@@H]1CCCO	19.7
7	COc1cc(C(CCN2CCCC2)c2c(OC)cc(OC)c3c(-c4ccccc4)cc(=O)oc23)cc(OC)c1OC (centres undefined)	14.9
8	Cc1c(NC(=S)Nc2cccc(Cl)c2)c(=O)n(-c2ccccc2)n1C	27.7
9	Cc1cc(C)nc(SCCC(=O)Nc2ccccc2Cl)n1	4.7
10	COc1ccc(S(=O)(=O)N2CCC(O)(c3cccnc3)CC2)cc1OC	26.1
11	CC(=O)NCC(=O)N1CCCC(C(=O)c2ccc(Oc3ccccc3)cc2)C1 (centres undefined)	-9.0
12	COc1ccc(Cl)cc1NC(=O)NCCN1CCNC1=O	6.2
13	CC(C)NCC(O)c1cc(O)cc(O)c1 (centres undefined)	44.5
14	CN1CCN(NC(=O)c2cc(-c3ccccn3)nc3ccccc23)CC1	12.2
15	CC(=O)C1=C(O)C(=O)OC1c1ccc(Cl)cc1 (centres undefined)	8.9
16	CC(=O)Nc1ccc(Nc2cc(C)nc3c(-c4ccc(Cl)cc4)c(C)nn23)cc1	9.4
17	S=c1sc2c(Cl)ncnc2n1-c1ccccc1	16.0
18	COc1cc(/C=N/NC(=O)c2ccccc2O)ccc1OC(=O)CC1SC(=O)NC1=O (centres undefined)	16.1
19	O=c1[nH]c(/C=C2\C=Nc3ccccc32)c(O)n1Cc1ccccc1F	-4.3
20	N=c1n(CC(=O)c2ccc(Br)s2)c2ccccc2n1Cc1ccccc1	21.0
21	COc1ccccc1NC(=O)NCCc1c[nH]c2ccccc12	24.2
22	O=C(Nc1cccc(S(=O)(=O)N2CCOCC2)c1)c1ccc(Cl)c([N+](=O)[O-])c1	4.7
23	Cc1ccc(S(=O)(=O)N(CC#N)CC#N)cc1	19.9
24	CCOC(=O)C1=C(CNCc2ccc(F)cc2)NC(=O)NC1c1cccc([N+](=O)[O-])c1 (centres undefined)	-1.9
25	COc1cc2c(cc1O)C(Cc1ccc(O)cc1)NCC2 (centres undefined)	12.4
26	O=C(COc1ccc(Cl)cc1Cl)NC(=S)Nc1ccc(CN2CCOCC2)cc1	26.9
27	CCOCCn1c(CN2CCN(C)CC2)nc2c1c(=O)n(C)c(=O)n2C	13.4
28	CCCCCN=CC1=C(O)CC(c2ccccc2)CC1=O (centres undefined)	5.9
29	COCC(=O)Nc1ccc(F)cc1	12.0
30	CCn1c(=O)cc(OCC(=O)Nc2ccc(OC)c(OC)c2)c2ccccc21	20.9
31	COC(=O)c1c(NC(=O)COc2ncnc3ccccc23)sc(C)c1C	14.9
32	O=C(CC(=O)c1ccccc1)Nc1cccnc1Cl	7.7
33	O=C(N/N=C/c1ccco1)C12CC3CC(CC(C3)C1)C2	15.2
34	Cc1ccc(-n2c(-c3ccccc3)c[n+]3c2CCc2ccccc2-3)c(C)c1	17.2
35	O=C(NCCSc1ccccn1)c1ccc(Cl)cc1Cl	18.4
36	O=C(Nc1ccc(S(=O)(=O)Nc2nccs2)cc1)c1cc(-c2ccncc2)nc2ccccc12	15.2
37	O=C(NC(=S)NCCc1ccccn1)c1ccccc1	6.8
38	Fc1ccccc1Cc1noc(CN2CCC(OCc3cccnc3)CC2)n1	4.6
39	O=C(NCc1cccnc1)c1cc([N+](=O)[O-])ccc1N1CCOCC1	3.2
40	COc1ccc(-c2ccc(C#N)c(SCC(=O)NCCc3ccccc3)n2)cc1OC	8.4
41	Cc1nn(-c2ccc(F)cc2)c(C)c1/C=C/C(=O)N1CCNC(=O)C1	11.6
42	CC(C)Cc1nnc(NC(=O)CSc2nc(O)c(Cc3ccccc3)c(=O)[nH]2)s1	6.8
43	CCC(C)Nc1nc(Cl)nc(N(C#N)CN2C(=O)c3ccccc3S2(=O)=O)n1 (centres undefined)	0.8
44	CC(=O)N1CCc2cc(Br)cc(S(=O)(=O)CCC(=O)Nc3c(C)n(C)n(-c4ccccc4)c3=O)c21	10.9
45	COc1cccc(N2CCN(C(=O)c3nc4nc(C)cc(C)n4n3)CC2)c1	9.6
46	COc1ccc(C(=O)N2C(=S)NC(=O)/C2=C\c2ccc(C)cc2)cc1	14.6
47	COc1cc(OC)cc(C(=O)Nn2cc(C(=O)Nc3c(F)cccc3F)c3ccccc3c2=O)c1	17.8
48	CCc1n[nH]c(=S)n1/N=C/c1ccc(N(CC)CC)cc1	7.0
49	CCN(C(=O)CSc1cc(C)c2cccc(C)c2n1)C1CCS(=O)(=O)C1 (centres undefined)	0.8
50	COc1cc(C(=O)NCc2ccc(-c3nc4ccccc4s3)cc2)cc(OC)c1OC	5.2
51	Clc1ccc(OCCn2cnc3ccccc32)c(Cl)c1	9.4
52	COc1cc(S(=O)(=O)N(Cc2ccccc2)CC2CCCO2)ccc1-n1cnnn1 (centres undefined)	6.5
53	CC(=O)c1cccc(NC(=S)NC2CC2)c1	2.8
54	COc1ccccc1NC(=O)c1ccc(NC(=O)CSc2ncn[nH]2)cc1	8.5
55	Cc1ccccc1-n1nnnc1SCC(=O)c1c(N)n(C)c(=O)n(C)c1=O	34.2
56	N=c1c2c(ncn1Cc1ccco1)Oc1ccc3ccccc3c1C2c1ccccc1 (centres undefined)	13.7
57	COc1cc(C)c(NC(=S)Nc2cccc(Cl)c2)cc1OC	-3.8
58	NS(=O)(=O)c1ccc(NNC(=O)c2sccc2Cl)cc1	12.4
59	CC1=CC(c2ccccc2)n2nnnc2N1 (centres undefined)	20.1
60	O=C(/C=C/c1ccccc1[N+](=O)[O-])N1CCN(c2ccccc2F)CC1	12.0

Next compounds.
item	canonical_smiles	Calb biofilm kill
61	C=CCOC(=O)c1cn(CC)c2nc(C)ccc2c1=O	13.6
62	CCOC(=O)c1csc(NC(=O)CCSc2ccccc2)n1	17.4
63	Cc1nonc1C(=O)N/N=C/c1cc2c(cc1Br)OCO2	26.2
64	CC(C)c1ccc(NC(=O)CNC(=O)Cn2cnc3ccccc3c2=O)cc1	16.1
65	CN(C)S(=O)(=O)c1ccc(Cl)c(NC(=O)COC(=O)CCSc2ccccc2)c1	15.8
66	O=C(NCc1ccccc1)c1cncc(Br)c1	4.2
67	CCOc1cc(C(=O)Nc2ccncc2)cc(OCC)c1OCC	8.9
68	COc1cc(/C=C/C(=O)N2CCCc3ccccc32)cc(OC)c1OC	12.6
69	CCOc1cc(NC(=S)NCC2CCCO2)c(OCC)cc1NC(=O)c1ccc(OC)cc1 (centres undefined)	10.8
70	COc1ccc(C(=O)NC(=S)Nc2ccccc2F)cc1	11.2
71	COc1cc(/C=C(\C#N)C(=O)Nc2cccc3ncccc23)cc(OC)c1OC	18.3
72	CC(=O)c1ccc(N(C(=O)Cn2nnc(-c3ccccc3)n2)C(C(=O)NC2CCCCC2)c2ccccn2)cc1 (centres undefined)	9.3
73	CCCNC(=O)CN(C)CC(=O)Nc1ccccc1C#N	9.0
74	CC(C)(C)c1cc[n+](-c2[nH]c(=O)sc2/C=N/NC([S-])=Nc2ccccc2)cc1	14.4
75	Cc1cccc(C(=O)NCC(=O)OCC(=O)N2CC3(C)CC2CC(C)(C)C3)c1 (centres undefined)	8.1
76	CSc1nc2ccsc2c(=O)n1-c1ccccc1	-1.8
77	OCCNCCOc1ccc(Cl)c(Cl)c1	10.1
78	C=CCc1cc2c(oc(=O)c3ccccc32)c(C)c1O	10.6
79	CCN(CC)c1ccc(/C=N/NC(=O)c2c(Cl)cnn2C)c(O)c1	22.9
80	CCCNC(=O)CN(C)S(=O)(=O)c1c(C)cc(C)cc1C	4.7
81	Cc1ccc(-c2cc3ccccc3nc2N2CCOCC2)cc1	5.5
82	O=C(c1ccccc1[N+](=O)[O-])N1CCN(Cc2ccc3c(c2)OCO3)CC1	11.8
83	COc1ccc(C(C)=O)cc1CS(=O)(=O)CC(=O)O	11.2
84	O=C(c1ccc([N+](=O)[O-])cc1)N1C=CC(C(F)(F)F)=NCC1	11.7
85	CC(C)(C)OC(=O)N1CCN(C(=O)[C@H](Cc2ccc(O)cc2)n2cc(CCO)nn2)CC1	12.5
86	CC12CN3CC(C)(CN(C1)C3c1cc3ccccc3[nH]1)C2=O (centres undefined)	-3.1
87	O=C(NCCCN1CCOCC1)C(C(=O)NCCCN1CCOCC1)c1ncc(C(F)(F)F)cc1Cl	0.0
88	Cn1nc(N)c2c(-c3ccc(Cl)cc3)c(C#N)c(N)nc21	15.1
89	c1ccc(Nc2cccc3c(Nc4ccccc4)cccc23)cc1	8.6
90	N#Cc1cccc(NC(=O)COC(=O)CCc2nc3ccccc3c(=O)[nH]2)c1	11.4
91	N#C/C(=C\c1cccnc1)c1nc2c(s1)CCCC2	13.7
92	COC(=O)CN1C(=S)N(c2ccc(Cl)cc2)C(=O)C1CC(=O)Nc1ccccc1 (centres undefined)	8.1
93	O=C1N(Cc2ccc(F)cc2)CCN1c1ccc(F)cc1	13.5
94	Cc1cc(C)cc(NC(=O)Cn2c(-c3ccccc3Cl)nc3ccccc32)c1	20.8
95	CCN(CCn1cccn1)C(=O)c1cc(COc2c(F)cccc2F)on1	18.2
96	CCOC(=O)c1nc(-c2ccc(OC)c(OC)c2)cnc1C#N	7.9
97	COc1cc(CN2CCN(Cc3ccc(C)cc3)C(CCO)C2)cc(OC)c1O (centres undefined)	17.0
98	CCOc1[nH]n(-c2ccccc2)c(=O)c1C=NCc1cccnc1	8.9
99	CC(C)(C#N)NC(=O)C(=O)c1c(-c2ccccc2)cc2ccccn12	23.8
100	N#C/C(=C\c1ccc(OCc2ccccc2)cc1)C(N)=O	3.6
101	CCC1CCCN1Cn1cnc2c([nH]c3ccc(Cl)cc32)c1=O (centres undefined)	16.2
102	C=CCC1CCCC(=O)N2CC[C@H](O)C12 (some centres undefined)	15.4
103	CCOC(=O)c1nnn2c3ccccc3c(=O)n(C)c12	15.2
104	Cn1c(S(=O)(=O)c2ccc([N+](=O)[O-])cc2)nc(Br)c1Br	2.7
105	O=S1(=O)N=C2CCCCCN2C(c2ccc(F)cc2)N1 (centres undefined)	1.4
106	Cc1noc(C)c1C(=O)N1CCN(S(=O)(=O)c2cccc(Cl)c2Cl)CC1	10.1
107	COC(=O)c1ccc(C(=O)OC)c(NC(=S)N2CCCC(CO)C2)c1 (centres undefined)	8.3
108	CC(Cc1n[nH]c(=S)o1)c1ccccc1 (centres undefined)	26.4
109	COc1cccc(/C=N/Nc2nc(Nc3ccc([N+](=O)[O-])cc3)nc(N3CCCC3)n2)c1O	3.0
110	CN(Cc1ccccc1)c1nc2nonc2nc1N1CCCC(CN2CCCC2=O)C1 (centres undefined)	18.3
111	Cc1nc2ccccc2n1CSc1ccccc1	7.8
112	COc1cccc(-c2ccc3c(N)c(C(=O)NC4CC4)sc3n2)c1	25.1
113	CCOc1ccccc1NC(=O)CCNC(=O)c1ccc(Cl)cc1	0.0
114	COC(c1ccccc1)c1nnc(CCC(=O)N(C)CCc2ccccc2)o1 (centres undefined)	23.1
115	COc1ccc([C@H]2[C@H](C(=O)OC(C)(C)C)N3N=Cc4ccccc4C3C23C(=O)c2ccccc2C3=O)cc1OC (some centres undefined)	13.7
116	COc1cc(NC(=O)COC(=O)CNC(=O)c2ccc(C)cc2)c(C)cc1[N+](=O)[O-]	16.5
117	CC(=O)c1ccc(OCc2cc(=O)n3ccsc3n2)cc1	10.0
118	Cc1ccc(S(=O)(=O)N2CCN(CC(=O)Nc3ccc4c(c3)CCC4)CC2)cc1C	11.5
119	CNc1nc(C(=O)O)nc(N2CCOCC2)n1	10.2
120	Cc1ccc(NC(=O)/C=C/c2cccc(C(F)(F)F)c2)cc1	14.3

(cont.)
item	canonical_smiles	Calb biofilm kill
121	CC1=CC(C)(C)NC(=S)N1c1ccc(C)cc1C	9.6
122	Cc1ccc(S(=O)(=O)/N=C/N(C)C)cc1	15.5
123	O=C(O)CSCC(=O)NCc1csc2ccc(Cl)cc12	0.0
124	CCCCc1nnc(NC(=O)CSc2nc(N)cc(=O)[nH]2)s1	22.0
125	COc1ccc(-c2[nH]ncc2CNCCc2ncccc2C)cc1F	9.8
126	CN(c1ccccc1)S(=O)(=O)c1ccc(Cl)c(C(=O)Nc2ccc(N3CCOCC3)cc2)c1	13.1
127	CCOC(=O)C1(Cc2ccccc2)CCN(Cc2cccc3c2OCO3)CC1	10.4
128	Cc1ccc(CN(Cc2ccccc2)C(=S)Nc2ccccc2C)o1	10.9
129	O=C(NCCc1csc(-c2ccccc2)n1)c1ccccc1F	29.0
130	COCC(C)n1c(C)cc(C(=O)CSc2cc(C)c3ccccc3n2)c1C (centres undefined)	8.7
131	Cn1nc(C(C)(C)C)cc1C(=O)Sc1cccc(Br)c1	12.0
